# Assay outcomes as filed in PubChem.
# Marburg entry inh: Marburg virus entry inhibition; Marburg virus pseudotyped entry inhibition, cell reporter; control for the full effect not named in the record; about a third of the inactives were read at about 46 µM; Potency, µM (titrated, usually from 37.8 µM), inactives show at the highest dose activity change, negative = inhibition, usual class: inhibitors; 1.8% of 300,000 active; AID 540276; active = well fitted inhibition curve with a large enough effect; inconclusive = small, poorly fitted or top-dose-only effect, or effect the other way; inactive = flat fitted curve, though single readings scatter; tested in HEK293 cells; about a fifth of its hits are not listed in these tables; also: % is scaled to controls: 0 for no effect and ±100 for the full control effect; luciferase read-out
# NS1 function inh: blocks influenza NS1 protein function; S. cerevisiae slowed by influenza A NS1, growth recovery by OD600; Potency, µM (highest dose often 46.1 µM), for the others: at the highest dose activity, positive = more growth; 0.4% of 270,000 active; active means well fitted rising curve with a large enough effect; inconclusive means small, poorly fitted or top-dose-only effect; inactive means no such curve, though single readings can be large or run the other way; also: nearly all actives have a fitted effect of over 50% in size
#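 Growth recovery, yeast-based: influenza A NS1 expressed in S. cerevisiae causes slow growth, and suppressors are detected by OD600. The parent strain without NS1 is used as positive control.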
# Cruzain Triton: blocks cruzain activity in presence of Triton detergent; P25779; purified cruzain, Z-FR-AMC fluorescence, 0.01% Triton; Potency, µM, for inactives: max response, negative = inhibition, actives largely listed as inhibitors; 0.43% of 200,000 active; AID 1478;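 also: plate controls were neutral wells for no effect and buffer without enzyme for full effect; nearly all actives have a fitted effect of over 40% in size; top concentration of the series not given in the record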
# Target sequence (P25779 123-467 limits assumed): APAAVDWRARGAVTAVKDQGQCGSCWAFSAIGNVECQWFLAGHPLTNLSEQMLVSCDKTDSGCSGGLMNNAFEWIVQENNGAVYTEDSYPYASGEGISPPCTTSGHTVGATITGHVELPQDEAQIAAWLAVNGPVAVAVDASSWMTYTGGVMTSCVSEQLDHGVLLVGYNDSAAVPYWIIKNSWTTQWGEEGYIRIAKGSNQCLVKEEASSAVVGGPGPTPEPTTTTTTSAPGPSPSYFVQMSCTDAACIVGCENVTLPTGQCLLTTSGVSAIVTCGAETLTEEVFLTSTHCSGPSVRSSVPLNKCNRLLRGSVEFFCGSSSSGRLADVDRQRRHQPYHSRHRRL
#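 Read-out: AMC fluorescence (360 nm excitation, 450 nm emission), four reads over 2 min, first-to-third difference used. Conditions: cruzain 1.5 nM, Z-FR-AMC 2 uM, pH 5.5 acetate, 5 mM DTT, 0.01% Triton X-100.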
# SARS PLpro yeast: SARS-CoV PLP inhibition in yeast | S. cerevisiae expressing SARS-CoV PLpro, growth rescue; control for the full effect not named in the record | Potency, µM (titrated, usually from 32.9 µM), for the others: top-dose activity, positive = growth rescue | 0.19% of 330,000 active | AID 485353; active means well fitted rising curve with a large enough effect; inconclusive means small, poorly fitted or top-dose-only effect; inactive means no such curve, though single readings can be large or run the other way; also: 0% is about no effect; nearly all actives have a fitted effect of over 55% in size; growth read by luminescence after 48 h
# LASV entry inh: blocks Lassa virus binding to or entry into cells | Lassa virus pseudotype entry inhibition, cell reporter; control for the full effect not named in the record | Potency, µM (doses to about 37.9 µM), without a hit: at the top dose activity change, negative = inhibition, usual class: inhibitors | 1.2% of 300,000 active; active means well fitted inhibition curve with a large enough effect; inconclusive means small, poorly fitted or top-dose-only effect, or effect the other way; inactive means flat fitted curve, though single readings scatter; tested in HEK293 cells; also: % is scaled to controls: 0 for no effect and ±100 for the full control effect; nearly all actives have a fitted effect of over 50% in size; luciferase read-out
# StopGo reporter: FMDV 2A StopGo reporter, luciferase signal. human cells with a luciferase reporter of 2A StopGo recoding; control for the full effect not named in the record. Potency, µM (highest dose often 57.9 µM), for inactives: top-dose signal change, negative = less light. 1.2% of 410,000 active; active = well fitted falling curve with a large enough effect; inconclusive = small, poorly fitted or top-dose-only effect; inactive = no such curve, though single readings can be large or run the other way; tested in HEK293T cells; also: % is scaled to controls: 0 for no effect and ±100 for the full control effect; nearly all actives have a fitted effect of over 45% in size; luciferase light after 4 h
# RE007 growth inh: less growth of the S. pombe RE007 Vpr strain | S. pombe RE007 Vpr strain, BacTiter-Glo ATP luminescence, 24 h; control for the full effect not named in the record | AID 651644 | Potency, µM (titrated, usually from 92.2 µM), for inactives: at the highest dose activity change, negative = less growth | 0.21% of 360,000 active; active = well fitted falling curve with a large enough effect; inconclusive = small, poorly fitted or top-dose-only effect; inactive = no such curve, though single readings can be large or run the other way;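 also: % is scaled to controls: 0 for no effect and ±100 for the full control effect; nearly all actives have a fitted effect of over 50% in size; the assay follows cell death caused by Vpr and the record does not say whether a fall means rescue or toxicity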
#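 Fission yeast RE007 carrying one integrated HIV-1 vpr copy, seeded at OD 0.01 in PMG+AL medium with 23 nL pinned compound. Grown 24 h at 30 degrees; viability read by BacTiter-Glo luminescence after 5 min.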
# Cruzain noTriton: cruzain (T. cruzi) inhibition without detergent; P25779; purified cruzain, Z-FR-AMC fluorescence, no detergent; Potency, µM, for inactives: max response, negative = inhibition, most hits filed as inhibitors; 2.3% of 200,000 active; AID 1476;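 also: plate controls were enzyme without inhibitor for no effect and buffer without enzyme for full effect; nearly all actives have a fitted effect of over 40% in size; top concentration of the series not given in the record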
#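 Purified cruzain at 1.5 nM, pre-incubated 15 min with compound at room temperature in 100 mM sodium acetate pH 5.5, 5 mM DTT, 0.00005% Triton X-100. Reaction started with 2 uM Z-FR-AMC; AMC fluorescence increase over 60 s gives rate.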
# Numbers without * were called inactive; ? = inconclusive; . = no result given; & = joins results of further samples; [ ] = dose if it differs, or a comment. Unless noted, calls follow the shape of the dose curve; as a rule, active = well fitted curve in the direction sought with a large enough effect; inconclusive = small, poorly fitted or top-dose-only effect, or another doubt; inactive = no such curve, though single readings can be large; an effect the other way counts as inactive or inconclusive. Potency is read from the fitted curve at half-maximal effect.
SMILES,Marburg entry inh,NS1 function inh,Cruzain Triton,SARS PLpro yeast,LASV entry inh,StopGo reporter,RE007 growth inh,Cruzain noTriton
Cc1ccc(NC(=O)Cc2csc(-c3ccccc3)n2)cc1F,?,-8%,-4.5%,0%,0%,-9%,-12%,-4%
COc1ccc(C(CNC(=O)c2ccc(NS(=O)(=O)c3ccc(F)c(C)c3)cc2)N2CCCC2)cc1 (stereo unspecified),?,.,.,.,-12%,9%,10%,.
COc1ccc(C(C)n2c(C)c3c(C)nnc(C)c3c2C)cc1 (stereo unspecified),?,3%,-2.8%&2.4%,-1%,14%[46.1 µM],0%&-22%,4%,-5%&-19%
Cc1ccc2nc(/C(C#N)=C\c3ccc(OC(=O)c4cccs4)cc3)[nH]c2c1,?,-7%,-0.5%,-11%,?,.,10%,?
CCN(CC)c1ccc(C2C(C(=O)OCCOC)=C(C)NC3=C2C(=O)CC(C)(C)C3)cc1 (stereo unspecified),0%,-6%,-5.9%,1%,-1%,6%,7%,-4%
CCCCn1nnnc1SCC(=O)N(CC)CC,15%[46.1 µM],3%,2.4%,-14%,-18%,-2%,9%,0%
Cc1ccc(C(=O)Nc2sc(Cc3ccc4c(c3)OCO4)c(C)c2C(N)=O)cc1,-2%,4%,-3.2%,-8%,-1%,-9%,0%,?
COc1cc2ccccc2cc1C(=O)N1CCOCC1,?,.,.,0%,5%[46.1 µM],-7%,9%,.
CC(C)[C@H](N[C@@H](C)c1ccccc1)c1c(O)ccc2ccccc12,.,4%,.,4%,.,-25%,-27%,.
COc1cc(/C=C2\C(=N)N3N=C(CC(=O)N4CCOCC4)SC3=NC2=O)cc(OC)c1OC,1%[46.1 µM],3%,.,2%,-6%[46.1 µM],-23%,21%,.
Cn1cccc1CC(=O)N/N=C/C=C/c1ccco1,13%,?,-6.5%,9%,13%,42%[activator],-9%,-11%
Cc1ccccc1OCC(=O)Nc1cc(Cl)ccc1Oc1ccccc1,14%,5%,-2.1%,5%,-2%,-12%,0%,-11%
Cc1ccc(CC23CN4CCN(CC(C4)C2O)C3)c(C)c1 (stereo unspecified),-25%,-2%,5.1%,9%,-10%,-15%,1%,-7%
CCC(C)n1nccc1NC(=O)C(C)Cl (stereo unspecified),7%[46.1 µM],.,.,0%,0%[46.1 µM],11%,45%,.
COc1ccc(CNC(=O)C2(c3cccs3)CCOCC2)cc1,.,.,1.0%,.,12%[46.1 µM],-16%,.,22%
Cc1noc(C)c1C(=O)Nc1ccc(N(C)C)cc1,.,-10%,.,1%,.,?,-4%,.
COc1ccc(N2C3=C(CC4=C2CC(C)(C)CC4=O)C(=O)CC(C)(C)C3)cc1,?,20%,-1.0%,1%,-31%,.,-21%,17%
O=C(OCc1ccccc1)C1=[N+]([O-])OC(C(=O)OCc2ccccc2)C1c1c[nH]c2ccccc12 (stereo unspecified),-26%,-3%,-6.1%,2%,-23%,-23%,4%,?
O=C(CNC(=O)C12CC3CC(CC(C3)C1)C2)N1CCN(S(=O)(=O)c2cccs2)CC1,-23%,1%,0.0%,20%,-22%,0%,1%,5%
COc1ccc(C2/C=C\CN(C(=O)Nc3ccccc3-c3ccccc3)CC(=O)N2Cc2ccc(F)cc2)cc1 (stereo unspecified),.,?,.,-5%,.,-23%,7%,.
CCCn1c(NC(=O)c2ccc(C)cc2)nc2ccccc21,-27%,-18%,4.5%,-5%,15%,8%,-7%,1%
N=c1oc2ccc3ccccc3c2cc1-c1nnc2n1CCCCC2,-5%,0%,-0.3%,-2%,0%,.,-17%,?
O=C(C=Cc1ccc(Cl)s1)c1ccc(Cl)s1,-20%[46.1 µM],.,.,.,13%[46.1 µM],33%[activator],-19%,.
O=C(C(c1ccccc1)c1ccccc1)N(Cc1ccco1)C1CCS(=O)(=O)C1 (stereo unspecified),-12%,-6%,1.6%,16%,-3%,-2%,-8%,11%
O=C(Nc1ccc2c(c1)[nH]c(=O)c1ccccc12)C(F)(F)F,?,.,.,.,4%[46.1 µM],0%,2%,.
COc1ccccc1C(=O)Nc1cc(-c2ccc(C)cc2)no1,?,-8%,-11%,-3%,25%[46.1 µM],40%&44%[activator],-18%,4%
Cc1noc(C)c1S(=O)(=O)N(CC(=O)NCc1ccc(Cl)cc1)c1ccc2c(c1)OCO2,.,-50%,-6.8%,0%,.,-28%,10%,-6%
O=C(CCN1CCOCC1)NC1CCCN(Cc2ccccc2F)C1 (stereo unspecified),?,5%,.,?,-4%,-20%,-10%,.
COc1cc(NC(=S)NC2CC2)c(OC)cc1Cl,0%,11%,-2.2%,?,-3%,-1%,12%,-7%
N#Cc1c(-c2ccccc2)nc(-c2ccccc2)nc1N1CCOCC1,?,-6%,-3.7%,3%,4%,?,-2%,26%
COc1ccc2oc(C(=O)OCC(=O)N3C(C)CCCC3C)c(C)c2c1 (stereo unspecified),-16%[46.1 µM],-8%,.,-1%,4%[46.1 µM],10%,-6%,.
Cc1nc(NC(=O)c2ccc(F)cc2)nc2cc3c(cc12)OCO3,12%,-3%,2.7%,4%,-8%,19%,11%,-10%
C[C@@H]1C(NC(=O)c2ccccc2)CC2CC1C2(C)C (stereo partly specified),?,-112%,.,-14%,0%[46.1 µM],8%,?,.
CC(=O)Nc1ccc(C(=O)N/N=C(\C)CC(=O)Nc2ccc(OCc3ccccc3)cc2)cc1,?,7%,-4.9%,-10%,16%,2%,-2%,1%
CCCCn1nc2cc(C(=O)NCCc3cccs3)ccc2c1OCC,.,-1%,-7.0%,-5%,.,56%[activator],3%,1%
CCOc1ccc(CCNC(=O)COC(=O)c2ccc(C)s2)cc1OCC,.,7%,.,-6%,.,-25%,3%,.
CC(C)OC(=O)/C(=C/c1ccc(Br)cc1)NC(=O)c1ccco1,18%,-7%,-5.3%,-6%,17%,?,.,-16%
CCOC(=O)N1CCN(C(=O)c2ccc(CNS(=O)(=O)c3ccc(NC(C)=O)cc3)cc2)CC1,-13%[46.1 µM],-8%,.,20%,0%[46.1 µM],-10%,0%,.
COc1ccc(S(=O)(=O)N(C)C)cc1NC(=O)CSc1ncccn1,?,.,.,0%,-28%,-7%,1%,.
COc1cc(/C=C/C(=O)OCC(=O)Nc2ccc([N+](=O)[O-])cc2)ccc1O,.,5%,.,-1%,.,-26%,-9%,.
O=C(Nc1ccc(N2CCN(c3ccc(O)cc3)CC2)cc1)Oc1ccccc1,6%,9%,-0.1%,0%,-6%,.,-19%,16%
N#Cc1c(N2CCCC2)nc(N)c2c(N)nc(N3CCCC3)cc12,?,-40%,-22%,0%,?,12%,-27%,-27%
CCN(CC)C(=O)Cn1c(=O)n(Cc2ccc(C(=O)NCc3ccc(C)cc3)cc2)c(=O)c2ccccc21,19%[46.1 µM],.,-1.3%,.,-8%[46.1 µM],11%,.,-2%
Cc1c(C(=O)OCC(=O)N2CCCC2=O)oc2ccccc12,18%[46.1 µM],.,.,-1%,2%,43%[activator],?,.
Cc1cc(C)n(-c2ncnc3sc4c(c23)CCCC4)n1,-1%,-8%,0.1%,-1%,3%,.,-7%,-5%
CCC(C)(C)n1nnnc1C(c1ccc2ncccc2c1)N1CCN(c2nc3ccccc3s2)CC1 (stereo unspecified),?,8%,-2.3%,-1%,?,-27%,16%,-17%
COc1ccc(C2Nc3ccccc3C(=O)N2Cc2ccccc2)cc1CN1CCOCC1 (stereo unspecified),?,3%,.,0%,?,-9%,-15%,.
Cc1nc2nc(NC(=O)c3ccco3)nn2c(C)c1Cl,.,11%,.,-1%,.,48%[activator],8%,.
COc1ccc(S(=O)(=O)N(CC(=O)N2CCOCC2)Cc2ccccc2)cc1,?,-1%,1.1%,-7%,?,.,-10%,24%
CC(=O)NC1C(Oc2ccc(C=O)cc2)OC(COC(C)=O)C(OC(C)=O)C1OC(C)=O (stereo unspecified),14%[14.2 µM],-1%,.,2%,7%,5%,0%,.
CCc1nnc(NC(=O)c2cccc(C(=O)Nc3nnc(CC)s3)n2)s1,?,-102%,-2.0%,-31%,?,?,-14%,1%
Fc1ccc(-c2nnn3c2nc(NCc2ccccc2)c2ccccc23)cc1,5%&9%[46.1 µM],8%,0.6%,-1%,2%,-7%&1%,0%,-1%
Cc1cc2ccccn2c1C(=O)c1ccc(Cl)cc1,10%,-66%,-2.3%,-9%,-4%,-12%,-4%,-18%
CCN(CC)S(=O)(=O)c1ccc(N/N=C/c2cc(OC)ccc2O)nc1,?,-18%,-8.1%,0%,?,-24%,17%,-3%
CC(CCc1ccccc1)NS(=O)(=O)c1ccccc1Cl (stereo unspecified),11%[46.1 µM],-36%,.,-21%,1%,18%,1%,.
CN(C)c1ccc(CNC(=O)CN2C(=O)C3CCCCN3c3ccc(C(=O)N4CCCC4)cc32)cc1 (stereo unspecified),.,.,-2.1%,.,-3%[46.1 µM],3%,.,5%
Cc1ccc(C(=O)Nc2ccccc2-c2ccccc2)o1,-5%,-51%,1.8%,-10%,13%,0%,-12%,-2%
O=C(Nc1ccc(Cl)c(C(F)(F)F)c1)C1CCCN(S(=O)(=O)c2cnc[nH]2)C1 (stereo unspecified),?,-8%,-0.9%,-3%,1%,?,6%,-8%
O=C(Nc1c(C(=O)O)[nH]c2ccc(F)cc12)c1cccc(C(F)(F)F)c1,10%,0%,.,0%,-19%,-2%,3%,.
O=C(Nc1ccc(F)cc1F)c1csc(-c2cccs2)n1,-3%,.,.,-4%,-28%,43%[activator],4%,.

# Quoted at random: 2 records from the list
SMILES,Marburg entry inh,NS1 function inh,Cruzain Triton,SARS PLpro yeast,LASV entry inh,StopGo reporter,RE007 growth inh,Cruzain noTriton
O=C(Nc1ccc(Cl)c(C(F)(F)F)c1)C1CCCN(S(=O)(=O)c2cnc[nH]2)C1 (stereo unspecified),?,-8%,-0.9%,-3%,1%,?,6%,-8%
CC(CCc1ccccc1)NS(=O)(=O)c1ccccc1Cl (stereo unspecified),11%[46.1 µM],-36%,.,-21%,1%,18%,1%,.
